High-throughput results from PubChem.
YopH PTP inh – YopH (Yersinia) phosphatase inhibition | actives 0.16% (n = 140,000) | AID 898 | inhibition, %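 (about 10 µM by stock and volumes)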 | fluorescence Ex485/Em525;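 active = inhibition of 50% or more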;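 note: controls were vehicle for no effect and minimum signal wells for full effect; inactives centre near -20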
RecA splice inh – inhibitors of M. tuberculosis RecA intein splicing. P9WHJ3. cell-free RecA intein splicing, fluorescence. inhibition, %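 (about 9 µM by stock and volumes)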. actives 0.75% (n = 290,000). AID 2221; in the data active = inhibition above about 30%; inconclusive = no clear call, values can overlap the other calls;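 note: 0% = vehicle wells and 100% = reference inhibitor control wells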
Target sequence (P9WHJ3 whole entry, looked up, canonical isoform): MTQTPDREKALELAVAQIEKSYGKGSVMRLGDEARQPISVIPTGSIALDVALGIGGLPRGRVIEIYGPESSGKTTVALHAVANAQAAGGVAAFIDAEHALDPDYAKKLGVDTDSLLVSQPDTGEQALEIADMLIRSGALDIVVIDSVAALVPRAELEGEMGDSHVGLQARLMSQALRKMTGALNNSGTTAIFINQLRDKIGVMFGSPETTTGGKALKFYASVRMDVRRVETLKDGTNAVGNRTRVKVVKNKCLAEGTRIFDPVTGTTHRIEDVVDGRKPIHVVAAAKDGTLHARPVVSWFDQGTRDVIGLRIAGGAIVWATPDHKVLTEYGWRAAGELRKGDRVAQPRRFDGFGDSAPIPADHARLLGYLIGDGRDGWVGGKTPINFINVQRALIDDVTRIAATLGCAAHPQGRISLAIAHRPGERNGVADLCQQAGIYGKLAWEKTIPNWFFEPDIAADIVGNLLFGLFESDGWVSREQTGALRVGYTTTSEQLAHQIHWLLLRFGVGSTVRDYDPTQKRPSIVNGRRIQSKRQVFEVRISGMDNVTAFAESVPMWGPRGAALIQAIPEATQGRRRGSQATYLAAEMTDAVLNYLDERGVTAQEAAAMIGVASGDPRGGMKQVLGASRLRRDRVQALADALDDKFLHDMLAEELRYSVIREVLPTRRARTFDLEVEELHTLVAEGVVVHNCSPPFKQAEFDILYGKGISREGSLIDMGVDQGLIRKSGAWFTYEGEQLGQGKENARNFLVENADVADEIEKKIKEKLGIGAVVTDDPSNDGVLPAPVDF
Mtb growth – M. tuberculosis H37Rv growth inhibitors, H37Rv strain (AID 1626); inhibition, % at 10 µM, or IC50 in µM where a hit was titrated; M. tuberculosis H37Rv growth inhibition; higher % means a stronger effect; actives 0.95% (n = 220,000);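 active = confirmed in a dose series; inconclusive = inhibition above 80% but not taken into the dose series; inactive = below 80% or under 30% at every dose of the series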;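 note: bacteria incubated seven days before Alamar blue readout; 0% = bacteria only wells and 100% = bacteria with antibiotic wells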
Mtb betalactam – beta-lactam sensitization of Mtb H37Rv; AID 434955; M. tuberculosis H37Rv growth with meropenem, percent inhibition; hits of this screen are not shown here; inhibition, % at 25 µM; actives 0.27% (n = 330,000);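 active = about 74% or more and at least 40 points above the plate without the antibiotic, then above 30% in a dose series; inconclusive = first-round hits that could not be retested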;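 note: growth measured after seven days incubation then overnight dye step; 0% = bacteria only wells and 100% = bacteria with antibiotic; twin plates without the antibiotic show which effects depend on it; some results filed as inactive read as strong as hits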
Arbovirus anti – blocks arbovirus infection | arbovirus infection cell-based antiviral screen | inhibition, % at 10 µM | actives 0.37% (n = 200,000) | AID 1251;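 active = inhibition from about 30%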;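 note: bluetongue infection of BSR cells; cell survival read as ATP light after 72 h; 0% = infected wells without compound and 100% = uninfected wells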
Arbovirus anti repeat – recorded beside Arbovirus anti, whose call it bears; inhibition, %; measured here: 10K subset replicate screen; many hits read low in the repeat;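 first of two repeat runs on a subset; 0% = infected and 100% = uninfected wells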
Numbers without * were called inactive; ? = inconclusive; / = no result given. These rows are one share of the data; the hit share may differ from the screen's.

SMILES | YopH PTP inh | RecA splice inh | Mtb growth | Mtb betalactam | Arbovirus anti | others
CC1CCN(CC(=O)Nc2ccccc2C(=O)c2ccccc2)CC1 | / | 1.4 | 3% | 3 | 5
CC(NC(=O)Cc1cccs1)C(c1cccs1)N1CCOCC1 (stereo unspecified) | 6 | 3.0 | -5% | -8 | 1
CCn1nnc(NC(=O)COc2ccc(C3CCCCC3)cc2)n1 | -13 | 1.2 | ? | 99 | 10
CC(C)(CC(=O)O)CC(=O)NCc1c(Cl)cccc1Oc1ccccc1 | / | 4.9 | -7% | -5 | /
CS(=O)(=O)N(CC(=O)NC1CCCCC1)Cc1ccc(Cl)cc1 | -14 | -3.5 | -4% | -8 | 4
COc1ccccc1NC(=O)CN1CCSc2ccccc21 | / | -0.2 | 4% | 5 | 2
O=C(c1cc(F)ccc1F)N1CCC(N2CCC(C(=O)N3CCCC3)CC2)CC1 | / | -1.0 | / | 7 | /
O=C(O)CCCN1C(=O)C(=O)/C(=C(/O)c2ccccc2)C1/C=C/c1ccccc1 (stereo unspecified) | / | -0.1 | -3% | -1 | 13
O=C(/C=C\c1ccccc1)Nc1ccc(NC(=O)c2ccco2)cc1 | / | 0.5 | 4% | -7 | -8
O=C(N/C(=C/c1ccccc1)C(=O)N1CCCCC1)c1ccc(Br)o1 | / | 2.4 | / | -3 | /
O=C(CCNC(=O)C1CCN(S(=O)(=O)c2ccccc2)CC1)NC1CC1 | / | -2.1 | / | 3 | /
N#C/C(=N\Nc1ccc(F)cc1)C(=N)N1CCCCCC1 | / | 1.4 | 2% | 3 | -11

5 records picked at random from those above:
SMILES | YopH PTP inh | RecA splice inh | Mtb growth | Mtb betalactam | Arbovirus anti | others
O=C(CCNC(=O)C1CCN(S(=O)(=O)c2ccccc2)CC1)NC1CC1 | / | -2.1 | / | 3 | /
CCn1nnc(NC(=O)COc2ccc(C3CCCCC3)cc2)n1 | -13 | 1.2 | ? | 99 | 10
O=C(c1cc(F)ccc1F)N1CCC(N2CCC(C(=O)N3CCCC3)CC2)CC1 | / | -1.0 | / | 7 | /
CC1CCN(CC(=O)Nc2ccccc2C(=O)c2ccccc2)CC1 | / | 1.4 | 3% | 3 | 5
CC(NC(=O)Cc1cccs1)C(c1cccs1)N1CCOCC1 (stereo unspecified) | 6 | 3.0 | -5% | -8 | 1

Continued.
SMILES | YopH PTP inh | RecA splice inh | Mtb growth | Mtb betalactam | Arbovirus anti | others
Cc1ccccc1NC(=O)CN1C(=S)NC(C)(C)CC1C (stereo unspecified) | -7 | -0.6 | 2% | 3 | 8
COC(=O)CSc1nc2cc3c(cc2cc1C#N)OCO3 | -38 | -0.4 | 2% | 3 | -6
Nc1nnc(SCC(=O)c2ccc3ccccc3c2)s1 | -28 | -0.4 | / | -13 | 8
COC(=O)c1ccc(S(=O)(=O)NCc2cccc(OC)c2)n1C | -48 | / | 8% | 0 | 5
CCOc1ccc2[nH]c(=O)c(CN(CCOC)C(=O)N3CCOCC3)cc2c1 | -27 | -2.5 | -4% | -6 | 12
COc1ccc(S(=O)(=O)N2CCC(C(=O)N3CCc4ccccc4C3)CC2)cc1C | -11 | -2.0 | -1% | -4 | -10
O=C(Oc1ccc2c(c1)OCO2)c1ccc(Br)c(S(=O)(=O)N2CCOCC2)c1 | -7 | / | / | 100 | 0
O=C(CC(c1ccccc1O)N1CCCCC1)N1CCCCC1 (stereo unspecified) | 4 | -6.4 | -10% | -3 | 10
Cc1cc(NC(=O)c2cc(-c3ccccc3)on2)n(-c2ccccc2)n1 | 40 | 2.1 | -11% | -3 | -2
O=C1NC(=Nc2ccccc2)S/C1=C/c1cccnc1 | / | 1.9 | 51% | -1 | 9
NCC12CC3CC(CC(O)(C3)C1)C2 | -2 | -4.5 | 0% | -1 | -1
Cc1[nH]c(=O)[nH]c(=O)c1S(=O)(=O)Nc1ccc(F)c(Cl)c1 | / | -1.6 | / | 7 | /
Cc1ccc(C)c(NC(=O)C2(C)CC3c4ccccc4C2c2ccccc23)c1 (stereo unspecified) | -36 | / | 4% | -7 | -2
CCCC1CCC(C(=O)n2nc(N)c3cc4ccc(OC)cc4nc32)CC1 (stereo unspecified) | -23 | -0.8 | / | 1 | 9
O=C1/C(=C\c2ccc(O)cc2)SC(=S)N1c1cccnc1 | / | 3.2 | -5% | 6 | 16
CCO[C@H]1OC(C(=O)N2CCN(Cc3ccccc3)CC2)=C[C@@H](c2ccccc2)[C@@H]1CCCO | / | 1.5 | -5% | -7 | 1
CCOC(=O)C1=C(C)NC(=O)NC1c1cccnc1 (stereo unspecified) | 1 | 0.7 | -2% | 3 | -2
Cc1ccoc1C(=O)Nc1ccc(CC(=O)O)cc1 | -23 | -0.9 | -6% | 4 | 0
Cc1ccc(-c2nc(CSCC(=O)NCCN3CCN(Cc4ccccc4)CC3)c(C)o2)cc1 | -38 | 2.7 | -6% | -6 | 9
CC(C)C(=O)N=c1sc2cc(F)cc(F)c2n1C | / | -0.3 | 5% | -6 | 7 | Arbovirus anti repeat=4
CC(C)c1ccccc1-n1c(SCC(=O)N2CCN(c3ccccc3)CC2)nnc1-c1cccnc1 | -11 | -0.6 | 7% | -3 | -13
O=C(OC1CCCCC1=O)c1cccc(S(=O)(=O)N2CCCCC2)c1 (stereo unspecified) | / | 0.9 | / | -3 | /
NC(=O)CN(Cc1ccccc1)S(=O)(=O)c1ccc2c(c1)OCCO2 | / | -1.7 | / | 4 | /
O=C(CCSc1nnc(-c2ccccc2)o1)N1CCOCC1 | -22 | 0.1 | 13µM* | 96 | 4
O=C(Cn1cnc2ccccc2c1=O)Nc1ccc2c(c1)OCCO2 | -16 | -0.8 | -1% | -6 | 7
CCC(C)Sc1nc2ccccc2n1CC(=O)O (stereo unspecified) | -22 | 0.7 | -3% | -12 | 12
COCCN(C(=O)Cc1cccs1)C(C(=O)NCc1ccc(OC)cc1)c1ccccc1 (stereo unspecified) | -1 | 5.1 | -9% | -18 | 3
CCOC(=O)C(CCCOc1ccc(C)cc1)C(=O)OCC | -31 | 2.7 | -4% | 100 | 10
CC(C)=CCc1c(O)cc(O)c2c(=O)c(O[C@@H]3O[C@@H](C)[C@H](O)[C@@H](O)[C@H]3O)c(-c3ccc(O)cc3)oc12 | / | 14 | 0% | -8 | /
CC(=O)c1ccc(C(=O)N2CCC(CO)(Cc3cccc(C(F)(F)F)c3)CC2)cc1 | / | 3.3 | 0% | 5 | 11
O=C(NN=C1c2ccccc2-c2ccccc21)c1ccccn1 | -17 | -3.1 | 5% | 95 | -11
CC(=O)c1ccc(OCCCC(=O)NC(C)c2ccc(S(N)(=O)=O)cc2)cc1 (stereo unspecified) | / | 0.3 | 1% | -6 | 8
CC(CN(C)Cc1ccccc1)OC(=O)c1ccccc1F (stereo unspecified) | -2 | -2.1 | 6% | -3 | -10
Cc1cccc(NC(=O)CSc2nnc(CCCCCNC(=O)OC(C)(C)C)o2)c1C | -47 | / | -4% | 1 | 17
CC1CCCCC1NC(=O)c1cc2c(s1)CS(=O)(=O)C2 (stereo unspecified) | -44 | 4.8 | -4% | -4 | -2
Cc1cccc(/C=N/NC(=O)Cn2nc(C)cc2C)n1 | -25 | -1.8 | 3% | -3 | -9
COC(=O)C(F)(F)Sc1c(C)[nH]c2ccccc12 | -17 | / | -3% | 1 | -3
CC1CCCC(NC(=O)COC(=O)c2ccc3ccccc3n2)C1C (stereo unspecified) | 3 | -1.9 | -3% | -4 | 2
CCN1C(=O)c2ccc(C(=O)Nc3cccc(C(=O)O)c3)cc2C1=O | / | 0.0 | / | -4 | /
CC(=O)Nc1ccc(S(=O)(=O)N2CCCC2C(=O)O)cc1 (stereo unspecified) | -41 | -0.6 | -4% | 3 | 4
CCOC(=O)Cc1cc(=O)n2[nH]c(C)c(-c3ccccc3)c2n1 | -22 | -0.8 | 2% | 8 | 5
CCS(=O)(=O)N1N=C(c2cccc(NS(C)(=O)=O)c2)CC1c1ccc(C)cc1 (stereo unspecified) | / | 1.7 | -1% | 3 | 1
COc1cccc(C(=O)OCCCN(C)C)c1 | -6 | -2.5 | 8% | 7 | 2
Cc1cc(=O)n2ncnc2n1COCCO | -20 | -18 | -8% | -13 | 7
CN(C)CCCNC(=O)C1(O)c2cc(Br)ccc2NC(=O)N1c1ccc(Cl)cc1 (stereo unspecified) | / | -1.0 | / | 3 | /
O=c1sc2ccccc2n1CCOc1ccccc1 | -54 | 3.1 | 3% | 1 | -5
CC(NCc1ccc([N+](=O)[O-])cc1)C1COc2ccccc2O1 (stereo unspecified) | / | 2.2 | / | 3 | /
CC(C)(C)NC(=O)C(OC(=O)Cn1nnc(-c2ccc(F)cc2)n1)c1ccncc1 (stereo unspecified) | -49 | -0.8 | -24% | 6 | 3

Sorted by heavy-atom count (ascending): 5 of the compounds above
SMILES | YopH PTP inh | RecA splice inh | Mtb growth | Mtb betalactam | Arbovirus anti | others
Cc1cc(=O)n2ncnc2n1COCCO | -20 | -18 | -8% | -13 | 7
CCC(C)Sc1nc2ccccc2n1CC(=O)O (stereo unspecified) | -22 | 0.7 | -3% | -12 | 12
O=C(CC(c1ccccc1O)N1CCCCC1)N1CCCCC1 (stereo unspecified) | 4 | -6.4 | -10% | -3 | 10
O=C(N/C(=C/c1ccccc1)C(=O)N1CCCCC1)c1ccc(Br)o1 | / | 2.4 | / | -3 | /
COc1ccc(S(=O)(=O)N2CCC(C(=O)N3CCc4ccccc4C3)CC2)cc1C | -11 | -2.0 | -1% | -4 | -10

The results go on:
SMILES | YopH PTP inh | RecA splice inh | Mtb growth | Mtb betalactam | Arbovirus anti | others
COc1ccc(NC(=O)CCN2CCCC2)c(OC)c1 | -30 | 4.0 | -4% | -5 | 6
O=C(Nc1ccc(Cl)cc1)N1N=CCC1c1ccccc1 (stereo unspecified) | / | 4.0 | -4% | -1 | /
CCN1CCN(c2nc(C)c3c(n2)CC(C)CC3=O)CC1 (stereo unspecified) | / | 1.6 | -5% | -5 | -8
CC1CCCC(C)N1CC(O)COC1CCC(C(C)(C)C)CC1 (stereo unspecified) | / | -0.9 | / | 0 | /
CC1Cc2ccccc2N1CC(=O)Nc1ccc(S(=O)(=O)N(C)C)cc1 (stereo unspecified) | / | 0.7 | 3% | 5 | /
COc1ccc(N2CCN(C3CCCN(Cc4cccc(OC)c4)C3)CC2)cc1 (stereo unspecified) | / | -2.2 | / | -2 | /
COC(=O)Cc1[nH]c(=O)[nH]c1C(=O)OC | / | -0.9 | -6% | -7 | /
CN(C)CCNC(NC(=O)c1cccs1)C(Cl)(Cl)Cl (stereo unspecified) | -13 | 1.1 | 7% | -3 | 5
COc1ccccc1CNC(=O)CCc1nc2ccccc2c(=O)[nH]1 | -13 | -3.1 | 1% | -13 | 0
CC1CCN(S(=O)(=O)c2ccc(C(=O)N3CCOCC3)cc2)CC1 | / | 0.1 | / | -18 | /
CN1CCN(S(=O)(=O)c2cccc(C(=O)NCCOc3ccccc3F)c2)CC1 | / | 1.9 | / | -19 | /
COC(=O)c1ccc(CSCC(=O)Nc2cc(OC)cc(OC)c2)o1 | -28 | 1.3 | -5% | 0 | -4
O=C(O)c1cc(-c2ccc(Cl)s2)nc2ccccc12 | / | -7.6 | 2% | -16 | 6
Cc1cc(C)nc(OC(C(=O)O)C(OCCC(C)C)(c2ccccc2)c2ccccc2)n1 (stereo unspecified) | / | 2.1 | / | -9 | /
O=C(NCCOc1ccccc1Cl)C(=O)Nc1ccccc1 | -35 | 3.6 | 2% | 0 | -6
Fc1ccc(/C=N/NC(=S)Nc2cccnc2)cc1 | / | -1.1 | 4% | -8 | 7
Cc1ccc(S(=O)(=O)C2(C(=O)N3CCN(c4cc(C)ccc4C)CC3)CC2)cc1 | / | 2.0 | -5% | -3 | -7
C=CCC(=O)N1CCCC(CNC(=O)c2ccc(-c3ccccc3)cc2)C1 (stereo unspecified) | / | 1.1 | 0% | -10 | -8
CCCn1c(NC(=O)CN2C(=O)NC3(CCCC3)C2=O)nc2ccccc21 | / | -2.6 | / | -12 | /
CSCC(C)N1CCC(Oc2cccc(C(=O)NCc3ccccn3)c2)CC1 (stereo unspecified) | / | 0.7 | / | 4 | /
CCOC(=O)C1CCN(Cc2ccc(F)c(F)c2)CC1 | -20 | 0.7 | -6% | 4 | 5
N#Cc1c(SCC(=O)Nc2ccccc2)nsc1SCC(=O)Nc1ccccc1 | 3 | -2.6 | 7% | 4 | -11
O=C(Nc1nccs1)c1ccc(Br)s1 | / | 3.3 | / | 80 | /
Cc1cccc(OCCCC(=O)Nc2ccc(N3CCCCC3)cc2)c1C | -19 | -7.3 | -3% | -9 | 7
O=C1/C(=C/c2cc([N+](=O)[O-])ccc2Cl)N2CCC1CC2 | -13 | -2.8 | -4% | 79 | 1
